Compound activity (PubChem BioAssay)
HCMV NEC inh: inhibitors of HCMV UL50-UL53 nuclear egress complex interaction; HTRF UL50-UL53 interaction, normalized percent inhibition; inhibition, % (no concentration beside the values); actives 0.15% (n = 190,000);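 active = both replicates at 50% or more, plus weaker picks with an unusually low signal ratio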;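 note: stock transfer was 100 nL into about 20 µL; 0% = negative control wells and 100% = wells with untagged competitor protein; inactives centre near -12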
Sa growth inh: inhibitors of Staphylococcus aureus growth at 42 °C. S. aureus RN4220 growth, OD600, 20 h; stronger effect = lower value. relative growth, % (concentration not given with the values). actives 0.53% (n = 170,000);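 active = growth at 42 °C up to 50% and 20 or more points under that at 30 °C, or under 10% at both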;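 note: 300 nL library stock went into each well; scaled to the means of positive and negative controls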
GIV-Gai inh: inhibitors of GIV GBA-motif binding to rat Galpha-i3; actives 0.42% (n = 210,000); percent of control (FP), % (test concentration not listed); P08753; Galpha-i3/FITC-GIV peptide fluorescence polarization, 90 min; stronger effect = lower value; scaled: aluminum fluoride 0%, vehicle 100%;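 active = replicate mean at 85% of control or lower, very high polarization wells dropped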;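 note: wells of about 15 µL received 100 nL stock; the first replicate is given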
Target sequence (P08753 whole entry, looked up): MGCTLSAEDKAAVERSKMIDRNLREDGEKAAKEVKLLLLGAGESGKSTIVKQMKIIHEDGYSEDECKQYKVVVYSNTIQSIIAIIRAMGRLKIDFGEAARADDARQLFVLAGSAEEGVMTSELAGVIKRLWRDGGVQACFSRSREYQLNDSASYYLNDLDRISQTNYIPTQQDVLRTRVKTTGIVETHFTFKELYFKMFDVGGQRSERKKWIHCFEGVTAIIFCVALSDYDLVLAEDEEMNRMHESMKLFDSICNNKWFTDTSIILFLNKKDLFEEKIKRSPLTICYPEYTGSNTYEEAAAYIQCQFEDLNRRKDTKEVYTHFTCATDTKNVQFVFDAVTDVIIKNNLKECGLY
Sa growth inh second temp: second read-out of Sa growth inh, no call of its own (marks repeat the call); relative growth, %; measured here: growth at 30 °C;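 optical density after 20 h as mean of two plates; 100% = untreated growth and lower means inhibition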
* marks the source's active call; other numbers are inactive results; . = no result given; & = joins results of further samples.

Fields – Sa growth inh	HCMV NEC inh	GIV-Gai inh	Sa growth inh second temp
> O=C(Sc1ccc(C(F)(F)F)cn1)c1ccc(C(F)(F)F)cc1
→ 26	6	100	12
> CCOc1ccccc1NC(=O)N1CCC2(CC1)Nc1ccccc1-n1cccc12
→ .	22	104	.
> Cc1cccc(C(=O)N2CCNC(=O)C2CC(=O)Nc2ccc(F)cc2)c1 (stereo not given)
→ 93	-6	103	90
> Cn1c(=O)n(CCN2CCOCC2)c(=O)c2c1nc1n2CCCN1C1CCCCC1
→ .	-31	105	.
> COc1ccccc1NC(=O)CSc1nc(-c2cccc(Cl)c2)nc2c1Cc1c(CO)cnc(C)c1O2
→ 87	.	104	83
> Cc1cc(=O)oc2cc(OC(=O)CSC(=N)N)ccc12
→ 101	-2	.	92
> O=C(NCCc1ccc(Cl)cc1)c1ccc(Cn2c(=O)[nH]c3ccccc3c2=O)cc1
→ 109	.	104	96
> COC(=O)c1ccc(C(=O)N2CCOCC2)cc1
→ 98	-9	98	79
> CCOC(=O)c1c(/N=c2\oc3ccccc3cc2C(N)=O)sc2c1CCCC2
→ .	-22	105	.
> Cc1nc(C)c(Oc2cccc(C(F)(F)F)c2)c(=O)[nH]1
→ 101	6	98	97
> Cc1cc(/C=C2/C(=N)N3C(=NC2=O)SN=C3S(=O)(=O)CC(C)C)c(C)n1-c1ccc(F)cc1
→ 79	-14	102	81
> CCN1C(=O)C(O)(c2c[nH]c3ccccc23)c2cc(Br)ccc21 (stereo not given)
→ 102	-15	109	79
> O=C(COc1ccccc1)NCC(=O)NC1CCCCC1
→ 97	-14	.	96
> O=C(NCCSc1ccccc1)c1cc(-n2cnnc2)ccc1Cl
→ 94	7	102	102
> N#Cc1ccsc1NC(=O)CC1(CC(=O)O)CCCC1
→ 154	-2	.	95
> CCc1c(C)sc(NC(=O)CN2CCN(c3ncccn3)CC2)c1C(=O)OC
→ 96	0	99	102
> Cn1c(CN(c2ccc(F)cc2)S(C)(=O)=O)nnc1SCC(=O)Nc1ccc(F)cc1Cl
→ .	-25	103	.
> O=C(Nc1cc2c3c(c1)CC(=O)N3CCC2)c1ccccc1
→ 94	-25	100	84
> C=CCSc1nc2sc3c(c2c(=O)[nH]1)CCc1ccccc1-3
→ .	2	103	.
> Cc1cc2oc(C(=O)Nc3sc4c(c3C(=O)NCC3CCCO3)CCC4)cc(=O)c2cc1C (stereo not given)
→ 97	-14&-12	103&107	85
> Cc1cccc(NC(=O)Cn2c(C(F)(F)F)nc3ccccc32)c1
→ .	7	103	.
> Cc1nn(Cc2ccccc2)c(Cl)c1C(=O)OCc1nc2ccc(Cl)cc2n1CCO
→ 89	-24	.	93
> CCOC(=O)c1cc(C)nc(Sc2ccccn2)c1C#N
→ 101	-55	102	85
> CCCn1c(C)ccc(-c2noc(CCCC(=O)Nc3nccs3)n2)c1=O
→ .	-35	105	.
> Cn1c(CN2C(=O)CSc3ccc(C(F)(F)F)cc32)nnc1SCc1ccccc1
→ 95	19	104	95
> COC(=O)c1ccc2c(=O)n(CCCCCC(=O)NCc3ccc(OC)cc3)c(=O)[nH]c2c1
→ 89	.	101	77
> CCOCCCNC(=O)c1cn(CC)c2ccc(S(=O)(=O)N3CCc4ccccc4C3)cc2c1=O
→ 102	-20	99	90
> COc1ccc(NC(=O)c2cc(-c3ccccc3)nc3ccccc23)c(OC)c1
→ .	-7	103	.
> N#Cc1c(CN2CCOCC2)cn2ccccc12
→ 83	-44	.	97
> CC(C)(Oc1ccc(Cl)cc1)C(=O)OCC(=O)N1CCCc2ccccc21
→ 116	-26	.	87
> CCCNC(=O)c1cc2cc3ccc(OC)c(Cl)c3nc2s1
→ .	-57	103	.
> Clc1ccc(C2=NN3C(C2)c2ccccc2OC3c2ccc(OCc3ccccc3)cc2)cc1 (stereo not given)
→ .	-23	94	.
> CN(C(=O)c1cc(-c2ccccc2)n[nH]1)C1CCCCC1
→ 106	.	102	86
> CN1CC=C2C(C#N)=C(N)C(C#N)(C#N)C(c3ccccc3)C2C1 (stereo not given)
→ 97	-22	109	94
> COc1ccc(CNc2ncnc3ccccc23)cc1
→ 102	-11	.	92
> Cc1ccc2[nH]c(=O)c3cc(C(=O)NCCN(C)Cc4ccccc4)sc3c2c1
→ 91	.	106	58
> Cc1oc(-c2ccc(Cl)cc2)cc1-c1nn2c(-c3ccco3)nnc2s1
→ 114	.	104	83
> CCc1ccc(-c2cn3c(n2)sc2cc(C(=O)NCC(C)c4ccccc4)ccc23)cc1 (stereo not given)
→ 97	.	103	93
> CCCCOc1ccc2nc3c(nc2c1)C(=O)c1ccccc1C3=O
→ 79	-48	113	71
> CCC1(C)Nc2ccccc2-c2nc3ccccc3n21 (stereo not given)
→ 101	.	104	68
> O=C(NCC1CCCO1)C1CC(c2ccccc2O)=NO1 (stereo not given)
→ 85	-4	104	72
> Cc1ccc(CCNC(=O)c2cc3n(n2)CCCN(Cc2ccc(C)cc2)C3=O)cc1
→ 94	.	96	93
> O=C(Nc1cccc(F)c1C(=O)NCc1cccs1)c1cccs1
→ 98	.	99	81
> CSc1cccc(NC(=O)C2CCN(c3ncnc4c3nc3n4CCCCC3)CC2)c1
→ 126	.	105	99
> CCOC(=O)c1cnn(CCOC(=O)CC)c1NC(=O)CC
→ 99	-6&3	103&97	92
> Cc1ccc(N2CCN(c3nc4ccc(C(=O)c5ccccc5)cc4n4cnnc34)CC2)c(C)c1
→ 91	.	107	97
> CC1CCCN(c2ccc3nncn3n2)C1 (stereo not given)
→ 107	9	101	102
> CCOc1ccccc1-c1noc(CSc2nnc(-c3ccccc3)n2-c2ccc(OC)cc2)n1
→ 96	-27	99	88
> COc1ccc(NC(=O)c2oc3ccc(S(=O)(=O)N4CCCCC4)cc3c2C)cc1Cl
→ 110	.	100	87
> CC(C)C(C)(C#N)NC(=O)CSc1nc2ccccc2c(=O)n1C1CCCC1 (stereo not given)
→ 123	9	.	107

Ordered by molar mass (ascending): part of the list above.
Fields – Sa growth inh	HCMV NEC inh	GIV-Gai inh	Sa growth inh second temp
> CC1CCCN(c2ccc3nncn3n2)C1 (stereo not given)
→ 107	9	101	102
> CCC1(C)Nc2ccccc2-c2nc3ccccc3n21 (stereo not given)
→ 101	.	104	68
> COc1ccc(CNc2ncnc3ccccc23)cc1
→ 102	-11	.	92
> CN(C(=O)c1cc(-c2ccccc2)n[nH]1)C1CCCCC1
→ 106	.	102	86
> O=C(NCC1CCCO1)C1CC(c2ccccc2O)=NO1 (stereo not given)
→ 85	-4	104	72
> CCOC(=O)c1cnn(CCOC(=O)CC)c1NC(=O)CC
→ 99	-6&3	103&97	92
> CN1CC=C2C(C#N)=C(N)C(C#N)(C#N)C(c3ccccc3)C2C1 (stereo not given)
→ 97	-22	109	94
> CCCCOc1ccc2nc3c(nc2c1)C(=O)c1ccccc1C3=O
→ 79	-48	113	71
> O=C(Nc1cccc(F)c1C(=O)NCc1cccs1)c1cccs1
→ 98	.	99	81
> CC(C)C(C)(C#N)NC(=O)CSc1nc2ccccc2c(=O)n1C1CCCC1 (stereo not given)
→ 123	9	.	107
> Cc1ccc(CCNC(=O)c2cc3n(n2)CCCN(Cc2ccc(C)cc2)C3=O)cc1
→ 94	.	96	93
> CSc1cccc(NC(=O)C2CCN(c3ncnc4c3nc3n4CCCCC3)CC2)c1
→ 126	.	105	99
> CCc1ccc(-c2cn3c(n2)sc2cc(C(=O)NCC(C)c4ccccc4)ccc23)cc1 (stereo not given)
→ 97	.	103	93
> COc1ccc(NC(=O)c2oc3ccc(S(=O)(=O)N4CCCCC4)cc3c2C)cc1Cl
→ 110	.	100	87
> CCOc1ccccc1-c1noc(CSc2nnc(-c3ccccc3)n2-c2ccc(OC)cc2)n1
→ 96	-27	99	88

Following part.
Fields – Sa growth inh	HCMV NEC inh	GIV-Gai inh	Sa growth inh second temp
> CN(C)C(=O)c1ccc2c(c1)n(C)c(=O)n2C
→ .	6	105	.
> O=S(=O)(NCc1cc(F)cc2c1OCOC2)c1ccc(-c2ccccn2)s1
→ 102	-30	109	67
> CCN(CC)C(=O)Cn1cnc2sc(C(=O)Nc3nc4ccccc4s3)c(C)c2c1=O
→ .	2	105	.
> Cc1nc2c(c(C)c1CCC(=O)NCC1CCN(CC(C)C)C1)c(=O)n(C)c(=O)n2C (stereo not given)
→ 103	-16	104	87
> Cc1ccc(S(=O)(=O)c2c(C(=O)N3CCCCC3)cnc3ccccc23)cc1
→ .	-9	105	.
> CN1C(=O)C(CC(=O)NCCc2ccc(Cl)cc2)Sc2ccc(S(=O)(=O)N(C)C)cc21 (stereo not given)
→ .	-13	104	.
> CC1=NNC(=O)C1Oc1ccc(Cl)cc1Cl (stereo not given)
→ 95	-22	100	88
> O=C(CC1(O)C(=O)Nc2ccccc21)c1ccccn1 (stereo not given)
→ .	-66	103	.
> CCCCNC(=O)c1cccc(N2CCCS2(=O)=O)c1
→ .	6	105	.
> COc1ccc(CCNC(=O)c2cc(C)no2)cc1OC
→ 98	.	104	94
> O=c1c2ccccc2nnn1CO
→ 110	-47	115	96
> CCCOC(=O)c1ccc(NCC(=O)Nc2ccc(C)cc2)cc1
→ 101	2	.	99
> COc1ccc(OCc2nn3c(-c4ccc(OC)cc4)nnc3s2)cc1
→ .	-18	105	.
> CC(=O)c1cccc(NC(=O)c2c(N3CCCC3=O)c3cc(F)ccc3n2C)c1
→ 126	.	102	83
> COc1ccccc1-c1nc2c3c4c(sc3ncn2n1)C(C)(C)NC(C)(C)C4
→ .	-18	99	.
> CCOc1ccc(NS(=O)(=O)c2ccc3[nH]cc(C(=O)N4CCCC4)c(=O)c3c2)cc1
→ 109	-11	101	89
> Cc1c(/C=N\NC(=O)OC(C)(C)C)c2ccccc2n1C
→ 97	0	98	93
> CC[C@H](C)C(=O)O[C@H]1CCC=C2C=C[C@H](C)[C@H](CC[C@@H]3C[C@@H](O)CC(=O)O3)[C@H]21
→ 89&95	-36&-12&-29	98&101	84&96
> CCCCN1C(=O)C2Cc3c([nH]c4ccccc34)CN2C1=S (stereo not given)
→ 101	-10	168	74
> CCn1cc(S(=O)(=O)c2ccccc2)c(=O)c2cc(F)ccc21
→ 88	-6	97	83
> N#Cc1ccsc1NC(=O)c1ccc(S(=O)(=O)N2CCOCC2)cc1
→ 86	-18	104	84
> CCCc1nn2c(=O)cc(COc3cccc(NC(=O)c4ccccc4)c3)nc2s1
→ 99	-2	106	101
> O=S(=O)(NN=C1CCCCC1)c1ccccc1
→ 102	10	106	101
> CC(C)(C)Sc1ccc2nn(CC(=O)NC3CCCCC3)c(=O)n2n1
→ .	-86	97	.
> CCC(c1nnc(SCC(=O)NCC(C)C)o1)N(C)C (stereo not given)
→ 98	-16	.	92
> O=C(NN1C(=O)c2ccccc2C1=O)C1CC2CCC1C2 (stereo not given)
→ 89	-80	99	101
> Cc1cccc(NC(=O)CSc2nnc(CNC(=O)c3cccc(C)c3)n2-c2ccccc2)c1
→ 111	-10	102	87
> O=S(=O)([O-])CCC[n+]1c(/C=C/c2ccccc2)sc2ccccc21
→ .	-43	94	.
> O=C1CC(SCCO)C(=O)N1c1ccccc1 (stereo not given)
→ 85	-8	106	94
> COc1cc(/C=C2/SC(=O)N(c3ccccc3)C2=O)cc(Br)c1O
→ .	-60	310	.
> CC(=O)Nc1ccc(Cc2ccncc2)cc1
→ 105	0	95	99
> CC(C)N(CC(N)=O)C(=O)c1ccccc1Nc1ccc(F)cc1
→ 104	9	.	96
> Cc1ccc(C)c(NC(=O)c2ccc(=O)n(Cc3ccc(F)cc3)c2)c1
→ 94	.	103&111	90
> COc1ccc(/C(C#N)=C/c2cccs2)cc1
→ 83	.	103	76
> COc1cccc(OC)c1CCOC(=O)c1c(F)cccc1F
→ 112	21	104	95
> COc1cc(CN(C)Cc2cc3c(cc2O)CCC3)ccc1OC(F)F
→ 81	-19	.	96
> CCOc1ccccc1CNC(=O)Cn1c(=O)c2cccn2c2ccc(F)cc21
→ 111	0	100	92
> CC1(C)CC(=O)C2=C(C1)Nc1ccccc1N(C(=O)Cc1ccccc1)C2c1cccc([N+](=O)[O-])c1 (stereo not given)
→ .	-35	106	.
> CC(C)C(=O)Nc1ccc(C(=O)Oc2ccccc2)c(O)c1
→ 114	-6	102	68
> O=C(NCCC1=CCCCC1)c1ccc(CN2C(=O)CCn3nc(-c4ccc(Cl)cc4)cc32)cc1
→ .	-6	101	.
> Cc1nn(C)c(Nc2ccc(Br)cc2)c1Br
→ 91	3	.	81
> CC1CCc2c(sc(NC(=O)c3ccccc3)c2C(=O)Nc2ccccc2)C1 (stereo not given)
→ 92	-39	103	85
> CCCCNc1ccccc1C(=O)O
→ 101	-14	.	93
> CCN(CC)c1ccc2cc(S(=O)(=O)c3ccc(Cl)cc3)c(=O)oc2c1
→ 100	.	218	89
> Cc1cccc(C(=O)NCCN2C(=O)S/C(=C\c3ccc(F)cc3)C2=O)c1C
→ 104	-27	.	89
> O=C(Cn1c2[n+](c3ccccc31)CC(O)CS2)N1CCCCC1 (stereo not given)
→ 107	-4	103	95
> COc1ccc(S(=O)(=O)NCCOc2ccccc2)cc1-n1cnnn1
→ 88	-10	97	80
> O=C(Cn1c(=O)nc(-c2ccccc2F)c2cc(Cl)ccc21)NCCCc1ccccc1
→ 91	-14	102	87
